Compound activity: PubChem BioAssay, several laboratories
HNF4A DNA FP: change in binding of human HNF4 alpha to DNA | P41235 | HNF4a-FITC DNA binding, fluorescence polarization, 1 h | activity change, % at 10 µM | 0.3% of 360,000 active | AID 1224865; in the data active means activity change above about 30%, passing the limit was not always enough;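 further: controls were the assay level and a saturating level of protein; the project sought stronger binding though the title names inhibitors; some compounds called inactive have numbers as strong as hits; positive values seem to mean higher polarization but the record does not say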
Vif TR-FRET: inhibitors of Vif binding to APOBEC3G peptide, primary screen, biochemical, TR-FRET, GST-Vif 1-94, biotin-A3G peptide, dose response retest (AID 1117319). one-dose inhibition, %; IC50 in µM for titrated hits. 0.57% of 260,000 active. TR-FRET GST-Vif / biotin-A3G peptide binding; higher % means a stronger effect; test concentration not given here; strong numbers were not always called active;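 active means above the screen mean plus three standard deviations and confirmed in dose response; inconclusive means results disagree or hit not tested in dose response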;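 further: Vif residues 1-94 fused to GST binding biotinylated APOBEC3G peptide 110-148; 0% = full assay without inhibitor and 100% = GST in place of GST-Vif; retest series ran down from 100 µM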
LANA-H2A inh: blocks KSHV LANA binding to histone H2A/H2B. Q9QR71. cell-free LANA-H2A/H2B peptide, fluorescence polarization. inhibition, % (test concentration not listed). 0.6% of 320,000 active. AID 2629; in the data active means inhibition mostly above about 10%, no sharp cut-off; inactive means mostly below about 6.7%;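 further: stock transfer was 7.5 nL into about 10 µL; 0% = median of vehicle wells and 100% = median of positive control wells; one replicate is shown; the record names a cut of 25% in any replicate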
E coli growth: E. coli growth inhibition | Escherichia coli growth, OD600, 23 h; hits give low values | OD600 absorbance (concentration not given with the values) | 0.21% of 330,000 active;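 active means OD600 absorbance below the run mean of sample wells minus 3.6 SD, in any replicate, cut at about 0.56 in these data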;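 further: stock transfer was 300 nL into about 60 µL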
Beta2AR agonist: activates human beta-2 adrenergic receptor causing internalization; response, % (test concentration not listed); Am2.2-beta2AR cells, FAP receptor internalization, flow cytometry; reference of the scale not given here; 0.43% of 340,000 active; AID 504454; P07550;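 active means response above a set limit, near 3 SD of response in nonfluorescent compounds, cut at about 42% in these data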;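 further: stock transfer was 100 nL into about 11 µL; a reference agonist was the positive control; negative values mostly stem from fluorescent compounds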
Target sequence (P07550 whole entry, looked up): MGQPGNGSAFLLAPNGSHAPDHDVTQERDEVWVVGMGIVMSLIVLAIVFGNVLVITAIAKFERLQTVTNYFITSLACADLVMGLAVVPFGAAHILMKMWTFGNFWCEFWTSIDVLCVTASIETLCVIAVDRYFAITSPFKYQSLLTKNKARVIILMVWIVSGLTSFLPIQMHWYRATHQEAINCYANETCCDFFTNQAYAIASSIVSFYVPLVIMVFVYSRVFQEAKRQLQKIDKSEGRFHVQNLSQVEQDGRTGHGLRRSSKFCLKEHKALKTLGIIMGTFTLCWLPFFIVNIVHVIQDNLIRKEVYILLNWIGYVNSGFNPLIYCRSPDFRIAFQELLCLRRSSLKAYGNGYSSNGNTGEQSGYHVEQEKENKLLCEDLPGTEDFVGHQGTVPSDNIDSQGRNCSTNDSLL
UCH37 DUB inh: human UCH37 deubiquitinating enzyme inhibition; Q9Y5K5; purified proteasome/UCH37, Ub-AMC cleavage fluorescence; inhibition, % (test concentration not listed); 0.33% of 330,000 active; AID 588478;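 active means mean of two replicates above 20%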;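 further: 0% = compound-free wells with enzyme and 100% = wells lacking proteasome; stock transfer was 100 nL into about 20 µL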
Target sequence (Q9Y5K5 whole entry, looked up): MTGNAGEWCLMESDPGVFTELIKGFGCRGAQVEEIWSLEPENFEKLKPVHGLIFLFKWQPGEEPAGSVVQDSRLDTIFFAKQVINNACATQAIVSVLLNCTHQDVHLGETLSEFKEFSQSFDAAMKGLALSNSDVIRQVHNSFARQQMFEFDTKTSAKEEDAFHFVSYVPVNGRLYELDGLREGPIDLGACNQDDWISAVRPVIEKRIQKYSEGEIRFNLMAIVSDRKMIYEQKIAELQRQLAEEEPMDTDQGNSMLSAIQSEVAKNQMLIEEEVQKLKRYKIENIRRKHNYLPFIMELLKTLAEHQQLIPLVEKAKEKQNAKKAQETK
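Material: human UCH37 enzyme supplied as purified proteasome complex. Measure: % inhibition of Ub-AMC cleavage fluorescence. Medium: pH 7.4 Tris-HCl (50 mM) with ovalbumin, ATP-MgCl2, DTT. Times: 30 min preincubation with enzyme, 25 min cleavage at room temperature. Detection: AMC fluorescence intensity at 355/460 nm.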
Bfl-1 A1 inh: inhibitors of the anti-apoptotic protein A1, read as caspase activation. MEF A1-2A-BIM cells, Caspase-Glo 3/7 luminescence, 3 h; percent of clofoctol response, vehicle zero. caspase activation, % (test concentration not listed). 0.066% of 330,000 active. AID 2462;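 active means over half of replicate activation scores above 10%, or exactly half above 10 with the replicate mean above 10; inconclusive means replicate mean below 10 yet half the replicates above 10; inactive means over half of replicates below 10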;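 further: wells of about 30 µL received 50 nL stock; many hits fall short of the cut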
The depositor's hits bear a star; u = inconclusive; x = no result given; + = active, no number; & = joins results of further samples.

SMILES	HNF4A DNA FP	Vif TR-FRET	LANA-H2A inh	E coli growth	Beta2AR agonist	UCH37 DUB inh	Bfl-1 A1 inh
CCN1CCCC1CNC(=O)CCc1nnc(CCC2CCCCC2)o1 (stereo not given)	-0.2	16.4%	-5.5	0.697	-16.7	0.7	1.0
CCOC(=O)c1csc(NC(=O)c2ccc(N3C(=O)CCC3=O)cc2)n1	1.8	u	-0.1	0.689	2.8	0.3	u
COc1ccc(-c2nn(C)c(=O)c3ccccc23)cc1NC(=O)Cn1nc(-c2ccccc2)c2ccccc2c1=O	7.9	-0.5%	-4.7	0.7	8.8	-1.7	0.3
CCOC(=O)c1cnc(-c2ccccc2)nc1Oc1ccc(OC)cc1	-1.0	24.0%	1.9	0.694	-2.6	-0.5	-0.3
Cc1ccc(C)c(NC(=O)CCN2CCC(C)CC2)c1	-1.1	-11.7%	-14.1	0.612	-2.0	6.2	-0.2
COC(=O)c1cc(NC(=O)/C=C/c2ccccc2)ccc1O	x	2.6%	-0.6	0.658	x	0.1	-0.2
Cc1ccccc1NC(=O)CSc1nnc(-c2ccco2)n1N	2.9	-10.3%	-2.8	0.692	-4.2	4.1	1.2
Cc1cc(/C=C\c2ccccc2)nc2ccccc12	-0.1	x	3.0	0.63	-26.2	-16.6	0.6
Cc1ccc(-c2noc(CCCOc3ccc(Cl)cc3Cl)n2)cc1	-1.4	4.0%	1.4	0.688	0.1	2.6	0.0
O=C(c1ccc(F)cc1)c1cn(Cc2ccc(F)cc2)c2cc3c(cc2c1=O)OCCO3	1.0	-29.3%	0.2	0.746	-4.8	-2.3	0.0
NC(=O)N1CCc2ccccc21	-1.9	0.9%	-4.4	0.7	-6.1	2.5	0.4
CC(=O)NC12CC3CC(C1)CC(C(=O)OCC(=O)c1ccc4c(c1)OCCO4)(C3)C2	1.7	7.5%	-5.5	0.799	5.7	-0.8	-0.3
CCOC(=O)c1sc(NC(=O)CSc2nnnn2-c2ccc(C)c(C)c2)nc1C	2.0	-20.9%&-9.3%	-2.4	0.702	-1.4	4.3	1.9
Cc1csc(SCC(=O)Nc2nc3ccccc3s2)n1	0.6	22.8%	0.5	0.749	-3.7	4.7	-4.8
O=C(Nc1nnc(C2=COCCO2)o1)c1ccc(S(=O)(=O)N2CCCCC2)cc1	-1.9	5.3%	0.0	0.675	-6.2	6.5	0.4
O=C1CN(C(=O)COC(=O)C2=COCCO2)c2ccccc2N1	0.1	-1.7%	1.5	0.714	2.5	2.1	-0.2
Cc1ccnc(SCc2cc(=O)c(OC(=O)c3ccc(Br)o3)co2)n1	-0.5	19.0%	1.6	0.637	12.8	3.2	0.5
NC(=O)c1c(NC(=O)c2ccc(F)cc2)sc2c1CCC2	3.6	x	1.5	0.746	-2.6	-103.9	-4.2
CCC(CC)C(=O)Nc1nnc(SCC(=O)NC(C)(C)C)s1	3.1	3.5%	7.3	0.667	2.9	-1.7	0.0
CCC(CC)C(=O)c1c[nH]c(C(=O)NCCOC)c1	-1.1	0.2%	7.0	0.7	-8.3	4.0	-0.7
COC(=O)CN1C(=O)C(O)(CC(=O)c2ccc(C)o2)c2ccccc21 (stereo not given)	-1.3	-0.3%	0.0	0.743	10.1	3.2	-0.1
O=S(=O)(c1ccc(Cl)cc1)N1CCN(c2ncccn2)CC1	-1.2	7.9%	0.6	0.666	3.9	2.1	-0.8
Cn1ncc([N+](=O)[O-])c1C(=O)N/N=C/c1cccc([N+](=O)[O-])c1	4.3	12.7%	3.6	x	-11.7	x	-0.8
CCn1cc(Cl)c(C(=O)N2N=C3/C(=C/c4cccs4)CCCC3C2c2cccs2)n1 (stereo not given)	1.9	10.5%	2.7	0.786	14.0	-20.0	1.0
CC1CCCC(NC(=O)CSc2nnnn2C)C1C (stereo not given)	0.1	-1.4%	9.5	0.707	0.8	4.0	-0.4
COc1ccc(CNC(=O)NCCc2c[nH]c3ccccc23)cc1	-3.2	1.0%	5.3	0.66	-5.9	0.2	0.6
O=C1C=C(c2ccc(-c3ccccc3)cc2)C[C@@H](c2ccc(F)cc2)C1	0.0	x	-1.0	x	5.8	5.0	0.6
C[C@@H]1CN([C@@H](C)CO)C(=O)c2cc(NC(=O)C3CC3)ccc2O[C@@H]1CN(C)C(=O)NC1CCCCC1	-1.1	x	3.8	x	-14.2	-1.3	2.2
CCc1ccc(CN(C)C(=O)c2cc(S(=O)(=O)N3CCOCC3)ccc2N2CCCC2)cc1	-0.7	4.8%	1.5	0.707	22.8	2.0	-1.6
Cc1cccc(NC(NC(=O)c2ccccn2)C(Cl)(Cl)Cl)c1 (stereo not given)	-1.1	-0.9%	0.1	0.663	2.9	2.7	-0.2
O=C(NCCN1C(=O)S/C(=C\c2cccc(Cl)c2Cl)C1=O)C1=COCCO1	2.8	-4.3%	-5.1	0.683	-16.8	4.0	-0.6
COc1ccc(-n2c(Cc3cccn3C)nnc2SCC(=O)Nc2ccc(F)cc2)cc1	-0.7	27.2%	2.2	0.729	-8.7	0.6	1.1
O=C(CCSc1ccccc1)NCc1cccnc1	-0.6	x	-3.5	0.698	6.4	0.7	-0.4
Cc1cc(C)n(-c2nc(NCc3cccnc3)c3c4c(sc3n2)COC(C)(C)C4)n1	-2.1	3.5%	2.7	0.722	-9.2	-160.0	-0.3
Fc1ccc(Br)cc1/C=N/n1cnnc1	1.8	-1.6%	4.0	x	3.5	x	0.1
COc1ccc(NC(=O)c2cc(-c3cc(OC)c(OC)c(OC)c3)nc3ccccc23)c(OC)c1	-3.2	x	1.4	0.685	15.8	1.2	0.2
CN(C)S(=O)(=O)c1cccc(NC(=S)N/N=C/C(=O)c2ccccc2)c1	-2.1	6.2%	1.9	x	-0.7	x	-0.4
Cc1cccc(C(=O)NNC(=O)c2ccccc2)c1	2.6	x	-3.3	0.672	6.6	1.4	0.1
Cc1nn(-c2ccccc2)c(Cl)c1/C=N/Nc1nncc(=O)[nH]1	2.3	5.9%	4.8	x	4.0	x	-3.7
CN(c1ccc(F)cc1)S(=O)(=O)c1ccc2[nH]cc(C(=O)O)c(=O)c2c1	-3.1	31.6%	-1.7	0.686	-5.3	3.0	0.5
Cc1cccc(N2CCN(C(=O)C(C)C)CC2)c1C	-1.1	25.5%	-2.5	0.684	6.2	4.4	-0.1
COc1cccc(/C=N/n2cnnc2)c1OCc1ccccc1	-1.1	-4.1%	2.5	x	5.2	x	0.7
CCCCCCCNC(=O)C1(CC2CC(c3cccc(Br)c3)=NO2)CCN(C(=O)Cc2ccc(F)cc2)CC1 (stereo not given)	-2.4	x	-2.0	0.697	3.9	-0.5	0.9
CC(C)(C)c1ccc(C(=O)N2CCC3(CC2)NCCc2[nH]cnc23)cc1	-1.1	-5.2%	3.8	0.688	5.0	3.0	1.1
O=C1Cc2ccccc2Sc2ccc(O)cc21	-0.9	7.6%	1.6	0.604	3.2	-12.5	0.2
Cc1cccc(CC(C)NC(=O)c2oc3c(F)cccc3c2C)n1 (stereo not given)	0.7	x	0.7	0.681	0.6	2.9	-0.1
Cc1ccccc1-c1cc(C(=O)NCc2ccc3c(c2)OCO3)n(CC2CC(c3cccnc3)=NO2)n1 (stereo not given)	2.8	x	3.3	0.725	21.0	0.2	-0.5
COc1ccc(S(=O)(=O)N(C)CC(=O)N2CCCCCC2)cc1	-5.2	x	-4.5	0.675	2.6	1.8	0.1
CCOc1ncccc1C(=O)OCC(=O)c1cc(OC)ccc1OC	-0.7	9.3%	6.0	0.671	-1.8	-3.0	-0.5
Cc1cccc(C)c1NC(=O)CN1CCCC1	-1.9	x	x	0.666	0.5	-0.7	x
(further entries)
SMILES	HNF4A DNA FP	Vif TR-FRET	LANA-H2A inh	E coli growth	Beta2AR agonist	UCH37 DUB inh	Bfl-1 A1 inh
CCOc1ccc(NC(=S)NCCCN2CCN(C3CCCCC3)CC2)cc1	0.4	4.2%	+	0.646	-7.6	0.2	0.4
CC(C)(C)c1cc(C(=O)Nc2ccc(F)cc2)n(Cc2ccc(F)cc2)n1	1.2	20.8%	4.8	0.656	-2.9	0.8	0.5
COc1cccc(CN2CCNC(=O)C2CC(=O)NC2CCCC2)c1OC (stereo not given)	-2.8	x	-1.1	0.698	-0.3	-2.9	-0.1
CCOc1ccc(-c2cc(C(=O)NN)[nH]n2)cc1	-0.1	x	9.9	0.614	-2.0	0.3	-0.3
O=C(NCCc1nnc2ccc(SCC(=O)N3CCOCC3)nn12)c1ccccc1	-3.8	x	2.7	0.704	1.7	0.8	-0.3
CC(C)NC(=O)c1ccccc1NC(=O)CCS(=O)(=O)Cc1ccccc1	2.6	-2.5%	2.3	0.656	-7.0	0.1	0.7
CC(C)NS(=O)(=O)c1ccc(OCC(=O)NCc2ccc3c(c2)OCO3)c(Cl)c1	2.8	9.8%	-0.5	0.776	-0.3	2.1	0.8
Cc1c(C=O)c2ccccc2n1CCOc1ccccc1F	-5.1	x	-2.0	0.679	-8.7	4.3	0.1
CCn1c(COc2ccccc2Cl)nnc1SCC(=O)Nc1ncccc1C	0.1	-2.0%	0.1	0.695	-4.0	0.2	0.9
CC(Sc1nnc(C2CC2)n1C1CC1)C(=O)Nc1ccccc1C#N (stereo not given)	-0.8	x	0.6	0.709	3.7	-2.8	0.6
Cc1ccc(N2CCN(/N=C/c3c(C)nn(-c4ccccc4)c3Cl)CC2)cc1	3.5	6.9%	-0.5	x	-1.7	x	2.2
CC(C)c1ccc(NC2CCCN(C(=O)CN3CCCC3=O)C2)cc1 (stereo not given)	-0.8	x	1.0	0.69	3.9	-1.5	1.1
O=C(COC(=O)c1ccccc1NS(=O)(=O)c1cc([N+](=O)[O-])ccc1Cl)c1ccccc1	x	-5.0%	-2.2	x	x	x	-0.2
Cc1ccc(C)c(NC(=S)N2CCC(NC(=O)c3cccc(F)c3)CC2)c1	0.5	x	6.4	0.668	5.1	1.2	0.2
O=C(CN1CCc2ccccc2C1)Nc1ccccc1C(F)(F)F	4.5	0.5%	2.3	0.648	1.4	4.6	0.5
COc1ccc(C=O)cc1Cn1cnc2c(cnn2C)c1=O	-5.8	-6.0%	-0.6	0.711	-16.1	-0.6	0.1
O=C1OCCN1N1CCOC1=O	3.0	-6.8%	x	0.652	3.6	2.7	x
Cc1ccc(S(=O)(=O)Nc2cccc(S(=O)(=O)Nc3ccccc3C(=O)O)c2)c(C)c1	-6.1	11.1%	6.3	0.646	2.5	0.3	1.1
O=C1/C(=C\c2ccc(O)c(O)c2)N=C2CCCCCN12	31.7	29.7%	-0.3	0.645	10.0	14.6	-1.1
COc1cc(C#N)ccc1OCC(=O)c1ccc2c(c1)OCCO2	2.7	-6.4%	-2.8	0.74	-0.3	0.5	-0.5
c1ccc2c(NCC3CCCO3)nc(N3CCCCC3)nc2c1 (stereo not given)	1.7	8.0%	-1.9	0.711	-13.7	-27.2	1.3
Cc1ccc(NC(=O)C2CCCN2C(=O)OCc2ccccc2)c(C)c1 (stereo not given)	-0.1	x	-2.8	0.699	-10.1	0.5	-0.2
CC(C)CC(C(=O)Nc1ccccc1)N1C(=O)C2C3C=CC(C3)C2C1=O (stereo not given)	-2.4	-2.4%	10.3	0.713	-2.6	2.1	-0.6
CC1CCc2cc(F)cc3c(O)c(C(=O)NCCN(C)C)c(=O)n1c23 (stereo not given)	-1.1	-17.6%	7.7	0.651	0.6	-22.2	-0.4
CCOC(=O)c1oc2cc(O)c(CC)cc2c(=O)c1-c1cscn1	1.1	-12.0%	-1.2	0.685	-0.2	6.3	u
